From PubChem
Ecoli rRNA inh – inhibits bacterial ribosomal RNA function over humanized ribosomes; E. coli WT GFP vs humanized-ribosome RFP mutants, fluorescence, 24 h; hits give low values; DMSO median 0, no signal -100; GFP signal change (wild-type ribosome), % (no concentration beside the values); actives 1.6% (n = 350,000); AID 720706;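 active = significant combined selectivity score with lowered wild-type GFP, culture density cut under 30%, mutant RFP and density less affected; inactive = any of these conditions unmet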; note: one replicate is shown; some compounds called inactive have numbers as strong as hits
FGF22 binding – FGF22 (human) thermal shift binding; Q9HCT0; recombinant FGF22 thermal shift, SYPRO orange fluorescence; percent of sucrose octasulfate shift, DMSO zero; calls only at 9.99 µM; actives 1.5% (n = 340,000); AID 651658;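 active = melting point raised past a set limit in the mean and every replicate; three in four hits are not shown here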
Target sequence (Q9HCT0 whole entry, looked up): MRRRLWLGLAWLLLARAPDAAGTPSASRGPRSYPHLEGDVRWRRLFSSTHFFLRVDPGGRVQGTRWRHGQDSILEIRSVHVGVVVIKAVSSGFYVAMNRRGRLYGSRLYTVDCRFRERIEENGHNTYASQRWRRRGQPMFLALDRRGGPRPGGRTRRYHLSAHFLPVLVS
AF4-AF9 inh – inhibitors of human MLL-AF4/AF9 interaction; P42568; actives 0.47% (n = 350,000); inhibition, % at 10 µM; AID 651704; AlphaScreen, biotin-AF4 peptide binding to FLAG-AF9;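 active = every replicate reaching a set inhibition limit, whatever the replicate mean, cut at about 25% in these data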;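 note: 0% = plate neutral control median and 100% = total signal loss; the record names both 10 and 1 µM as test concentration; the first replicate is given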
Target sequence (P42568 whole entry, looked up): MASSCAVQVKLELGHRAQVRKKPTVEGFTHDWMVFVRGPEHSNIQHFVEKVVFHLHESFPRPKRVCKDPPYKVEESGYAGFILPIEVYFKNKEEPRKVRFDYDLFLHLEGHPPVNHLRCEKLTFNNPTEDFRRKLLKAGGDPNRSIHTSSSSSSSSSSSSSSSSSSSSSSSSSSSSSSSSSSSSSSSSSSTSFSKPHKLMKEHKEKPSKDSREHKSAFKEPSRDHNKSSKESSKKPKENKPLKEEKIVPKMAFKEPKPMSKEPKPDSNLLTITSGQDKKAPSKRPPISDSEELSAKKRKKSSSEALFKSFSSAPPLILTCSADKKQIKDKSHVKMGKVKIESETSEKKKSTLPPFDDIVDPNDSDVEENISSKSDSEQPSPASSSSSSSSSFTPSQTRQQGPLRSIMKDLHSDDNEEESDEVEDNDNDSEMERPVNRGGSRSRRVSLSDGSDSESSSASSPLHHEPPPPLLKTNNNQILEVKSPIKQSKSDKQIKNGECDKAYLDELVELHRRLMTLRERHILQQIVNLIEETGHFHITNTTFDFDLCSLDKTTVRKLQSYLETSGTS
Ecoli rRNA inh OD600 – second read-out of Ecoli rRNA inh, no call of its own (marks repeat the call); OD600 change, %; measured here: OD600 growth;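 optical density of the mix in the first replicate; 0 = DMSO median and -100 = no signal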
Ecoli rRNA inh RFP – recorded beside Ecoli rRNA inh, whose call it bears; RFP signal change, %; measured here: RFP humanized mutant strains;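 first replicate; 0 = DMSO median and -100 = no signal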
* hit, by the source's call; i = inactive; & = joins results of further samples. A portion of the library; rates above refer to the full screens.

SMILES | Ecoli rRNA inh | Ecoli rRNA inh OD600 | Ecoli rRNA inh RFP | FGF22 binding | AF4-AF9 inh
C[C@H](O)C#Cc1ccc([C@H]2[C@@H](CO)N3CCCCN(C(=O)Nc4ccccc4)C[C@@H]23)cc1 | 2 | -6 | 2.3 | i | -4.0
O=CN(CCNc1ccccc1)c1ccccc1 | 5 | 6 | -6.9 | i | -1.3
Cc1ccc(S(=O)(=O)N(C)C[C@H]2Oc3ccc(NC(=O)Nc4ccc(C(F)(F)F)cc4)cc3C(=O)N([C@@H](C)CO)C[C@@H]2C)cc1 | -3 | -1 | -1.0 | i | -2.6
CCNC(=O)C[C@H]1CC[C@@H]2[C@@H](COc3ccc(NC(=O)c4cc(C)on4)cc3C(=O)N2C)O1 | -3 | -6 | -0.5 | i | -1.2
O=C(CN1CCOCC1)NCC[C@H]1CC[C@@H](NC(=O)Nc2ccc(C(F)(F)F)cc2)[C@@H](CO)O1 | 1 | -6 | 0.9 | i | -0.1
C[C@H](CO)N1C[C@H](C)[C@@H](CN(C)S(=O)(=O)c2ccc(Cl)cc2)Oc2ccc(NC(=O)CCCCCC(=O)Nc3ccccc3N)cc2C1=O | -4 | -2 | 1.5 | i | -2.4
CCC(=O)N[C@H]1C=C[C@@H](CC(=O)NCc2cc(F)cc(F)c2)O[C@@H]1CO | 1 | -1 | -0.2 | i | 0.2
COc1ccc(CN2C[C@@H](O)COC[C@@H]3O[C@@H](CC(=O)N(C)C)CC[C@H]32)cc1 | 3 | 3 | -3.1 | i | -3.3
C[C@@H](NC(=O)[C@@H]1[C@@H](CO)[C@@H]2Cn3c(cccc3=O)[C@@H]2N1CC1CC1)c1ccccc1 | 1 | 0 | -1.9 | i | 0.2
C[C@@H]1CN([C@H](C)CO)C(=O)c2ccccc2-c2ccccc2CO[C@@H]1CN(C)Cc1ccc(Cl)c(Cl)c1 | -2 | 4 | 0.2 | i | 4.0
COc1ccccc1-c1ccc2c(c1)O[C@@H](CN(C)CC1CCOCC1)[C@H](C)CN([C@H](C)CO)S2(=O)=O | -9 | -5 | 9.5 | i | -3.2
CC(C)C#Cc1cnc2c(c1)C(=O)N([C@H](C)CO)C[C@@H](C)[C@@H](CN(C)C(=O)c1cccc(F)c1)O2 | 2 | 13 | -2.2 | i | -3.7
CC(=O)N1C[C@H]2[C@@H](c3ccccc31)[C@@H](CO)N2S(=O)(=O)c1ccccc1 | 2 | 9 | -2.6 | i | 2.1
Oc1ccc(C[C@H]2CN([C@@H](Cc3ccccc3)CN3CCCC3CN3C(=S)NC[C@@H]3Cc3ccccc3)C(=S)N2CC2CCCCC2)cc1 (some centres undefined) | 9 | 0 | 0.8 | i | 4.5
CCCCCCCCN1C(=O)[C@@H](CC(=O)N2CCC(c3ccccc3)CC2)C[C@@]2(C(=O)OC)C1=C[C@H](C1CCCC1)O[C@@H]2C | 14 | 14 | 5.9 | i | -11

Compound profiles, as listed above. Screens in order: Ecoli rRNA inh	Ecoli rRNA inh OD600	Ecoli rRNA inh RFP	FGF22 binding	AF4-AF9 inh
Results for CCNC(=O)C[C@H]1CC[C@@H]2[C@@H](COc3ccc(NC(=O)c4cc(C)on4)cc3C(=O)N2C)O1 → -3	-6	-0.5	i	-1.2
Results for Cc1ccc(S(=O)(=O)N(C)C[C@H]2Oc3ccc(NC(=O)Nc4ccc(C(F)(F)F)cc4)cc3C(=O)N([C@@H](C)CO)C[C@@H]2C)cc1 → -3	-1	-1.0	i	-2.6
Results for CCCCCCCCN1C(=O)[C@@H](CC(=O)N2CCC(c3ccccc3)CC2)C[C@@]2(C(=O)OC)C1=C[C@H](C1CCCC1)O[C@@H]2C → 14	14	5.9	i	-11
Results for Oc1ccc(C[C@H]2CN([C@@H](Cc3ccccc3)CN3CCCC3CN3C(=S)NC[C@@H]3Cc3ccccc3)C(=S)N2CC2CCCCC2)cc1 (some centres undefined) → 9	0	0.8	i	4.5
Results for COc1ccc(CN2C[C@@H](O)COC[C@@H]3O[C@@H](CC(=O)N(C)C)CC[C@H]32)cc1 → 3	3	-3.1	i	-3.3

The listing picks up, repeating the three entries before the break.
SMILES | Ecoli rRNA inh | Ecoli rRNA inh OD600 | Ecoli rRNA inh RFP | FGF22 binding | AF4-AF9 inh
CC(=O)N1C[C@H]2[C@@H](c3ccccc31)[C@@H](CO)N2S(=O)(=O)c1ccccc1 | 2 | 9 | -2.6 | i | 2.1
Oc1ccc(C[C@H]2CN([C@@H](Cc3ccccc3)CN3CCCC3CN3C(=S)NC[C@@H]3Cc3ccccc3)C(=S)N2CC2CCCCC2)cc1 (some centres undefined) | 9 | 0 | 0.8 | i | 4.5
CCCCCCCCN1C(=O)[C@@H](CC(=O)N2CCC(c3ccccc3)CC2)C[C@@]2(C(=O)OC)C1=C[C@H](C1CCCC1)O[C@@H]2C | 14 | 14 | 5.9 | i | -11
O=C(NCC[C@H]1CC[C@@H](NS(=O)(=O)c2ccc(Oc3ccccc3)cc2)[C@H](CO)O1)C1CC1 | -3 | -11 | -2.2 | i | 0.8
C[C@H](O)C#Cc1cnc2c(c1)C(=O)N([C@@H](C)CO)C[C@H](C)[C@@H](CN(C)CC1CCCC1)O2 | 10 | 13 | -4.9 | i | -2.5
O=C(N[C@@H]1CC[C@@H](CCNC(=O)C2CCCC2)O[C@H]1CO)c1ccncc1 | 1 | 0 | -0.6 | i | -0.9
O=S(=O)(c1cccc2ccccc12)N1CCC2CC1c1cc(-c3ccc(F)cc3)ccc12 (centres undefined) | -2 | 9 | 0.2 | i | 1.7
C[C@H](CO)N1C[C@H](C)[C@@H](CN(C)S(=O)(=O)c2cccs2)Oc2c(NC(=O)Nc3cccc4ccccc34)cccc2C1=O | 0 | -2 | 0.2 | i | 1.0
C[C@@H]1CN([C@@H](C)CO)C(=O)c2cc(C#C[C@@H](C)O)cnc2O[C@@H]1CN(C)C(=O)c1ccc(F)cc1 | 8 | 13 | -4.1 | i | -3.0
C[C@H]1CCCCO[C@@H](CN(C)C)[C@@H](C)CN([C@@H](C)CO)C(=O)c2cc(NS(=O)(=O)c3ccccc3)ccc2O1 | 4 | 3 | -1.7 | i | 0.0
N#C[C@H]1[C@@H](c2ccccc2-c2ccccc2F)[C@@H](CO)N1C(=O)c1cccc(F)c1 | -12 | -3 | 1.7 | i | 1.9
C[C@@H]1CN([C@H](C)CO)C(=O)Cc2cc(NS(=O)(=O)c3ccccc3)ccc2O[C@H]1CN(C)Cc1ccc(C(=O)Nc2ccccc2N)cc1 | -1 | 8 | -3.9 | i | -1.2
CC(C)NC(=O)Nc1ccc2c(c1)C(=O)N([C@H](C)CO)C[C@H](C)[C@@H](CN(C)Cc1ccncc1)O2 | -5 | 5 | -1.9 | i | -3.1
O=C(C[C@H]1C[C@H]2c3cc(NC(=O)C4CCOCC4)ccc3O[C@H]2[C@H](CO)O1)NCc1cccc(F)c1 | 2 | -1 | 1.5 | i | -7.3
Cc1ccc(S(=O)(=O)N[C@@H]2CC[C@H](CC(=O)N3CCc4ccccc4C3)O[C@H]2CO)cc1 | -6 | -7 | 0.9 | i | -2.6
C[C@@H]1CN([C@@H](C)CO)C(=O)c2cc(Br)cnc2O[C@H]1CN(C)S(=O)(=O)c1cccs1 | -3 | -2 | 2.2 | i | -0.3&-4.4
C[C@H]1CN([C@@H](C)CO)C(=O)Cc2cc(NS(=O)(=O)c3ccc(Cl)cc3)ccc2O[C@@H]1CN(C)S(=O)(=O)c1ccc(F)cc1 | -3 | -8 | -0.8 | i | 2.4
COCC(=O)Nc1ccc2c(c1)[C@H]1C[C@@H](CC(=O)NCc3ccccc3F)O[C@H](CO)[C@H]1O2 | 0 | -1 | 1.9 | i | 1.5
CC1=C(C(=O)N2CCOCC2)CC(CC(=O)NCc2cccc3ccccc23)C(=O)N1Cc1ccc(C(C)(C)C)cc1 (centres undefined) | -6 | -17 | 4.3 | i | 1.1
Cc1cccc(S(=O)(=O)N2C[C@@H](O)COC[C@@H]3O[C@H](CC(=O)Nc4ccc(-c5ccccc5)cc4)CC[C@H]32)c1 | -3 | -18 | 8.5 | i | -7.2
C[C@H]1CN([C@@H](C)CO)S(=O)(=O)c2ccc(/C=C/c3ccccc3)cc2O[C@@H]1CN(C)Cc1cncnc1 | -23 | -26 | 17 | i | 18
C[C@H]1CN([C@@H](C)CO)C(=O)c2cc(NC(=O)C3CC3)ccc2O[C@H]1CN(C)C(=O)Nc1ccc(F)cc1 | 2 | 3 | 1.1 | i | -5.2
O=C(C[C@@H]1C[C@H]2c3cc(NC(=O)C4CCOCC4)ccc3O[C@H]2[C@H](CO)O1)NC1CCCC1 | 2 | 1 | 1.2 | i | 1.2
OC[C@@H]1[C@H](c2ccc(C#Cc3ccccc3)cc2)[C@H]2CN(Cc3cncnc3)CCCCN12 | 5 | -5 | 5.0 | i | 11
C[C@H]1CN([C@@H](C)CO)C(=O)c2cccc(NC(=O)c3cnccn3)c2O[C@H]1CN(C)C(=O)Nc1ccc2c(c1)OCO2 | -3 | -10 | -1.0 | i | 0.1
C/C=C/c1ccc2c(c1)O[C@H](CN(C)C(=O)c1cnccn1)[C@H](C)CN([C@@H](C)CO)S2(=O)=O | 1 | 8 | 0.9 | i | -2.0
C[C@@H]1ON(C)[C@H]2C[C@H]3c4cc(-c5cccc(F)c5)ccc4CCN3C(=O)[C@@H]12 | -12 | -11 | 6.8 | i | -6.9
COc1cccc(-c2ccc3n(c2=O)C[C@@H]2[C@@H](CO)[C@H](C(=O)NCC4CC4)N(C(C)=O)[C@H]32)c1 | 1 | 3 | -0.7 | i | 0.0
COc1ccc(C(=O)Nc2ccc3c(c2)OCCO3)c(OC)c1 | -15 | -21 | -3.9 | i | -0.4
O=C(c1ccccc1F)N1CC[C@H]2[C@H](CO)Nc3ccc(-c4ccccc4)cc3[C@H]21 | -7 | -46 | 37 | i | 1.1
C[C@H]1CN([C@@H](C)CO)C(=O)c2cc(C#CC3CC3)cnc2O[C@@H]1CN(C)C(=O)Nc1ccccc1 | 3 | 5 | 0.7 | i | -1.6
COc1ccccc1S(=O)(=O)N[C@@H]1CC[C@@H](CC(=O)NCc2cc(F)cc(F)c2)O[C@@H]1CO | -1 | 3 | 3.8 | i | -3.1
Cc1ccc(S(=O)(=O)N[C@H]2CC[C@@H](CCn3cc(-c4ccccc4F)nn3)O[C@@H]2CO)cc1 | -8 | -8 | -3.7 | i | 0.2
Cc1noc(C)c1NC(=O)N(C)C[C@@H]1Oc2ccc(NC(=O)CCCCCC(=O)Nc3ccccc3N)cc2CC(=O)N([C@H](C)CO)C[C@H]1C | 2 | 4 | -2.5 | i | -1.8
COc1ccc(S(=O)(=O)N(C)C[C@H]2Oc3ccc(NC(=O)Nc4c(C)noc4C)cc3C(=O)N([C@H](C)CO)C[C@H]2C)cc1 | 1 | 5 | -1.0 | i | -3.0
CCOC1=C2CN(S(=O)(=O)c3ccc(C)cc3)CC[C@@H]2N(S(=O)(=O)c2ccc(C)cc2)[C@H](c2ccccc2)C1 | 8 | 17 | -1.5 | i | 0.6
C[C@H](CO)N1C[C@H](C)[C@H](CN(C)Cc2ccc(C(F)(F)F)cc2)Oc2c(NC(=O)Nc3cccc4ccccc34)cccc2C1=O | 1 | -1 | 2.1 | i | 2.3
CC(C)NC(=O)N(C)C[C@@H]1Oc2ncc(C#Cc3ccc(F)cc3)cc2C(=O)N([C@H](C)CO)C[C@@H]1C | 0 | 3 | -5.8 | i | -3.2&-5.1
CC(=O)Nc1cc2c3ccccc3ccc2c2ccccc12 | -34 | -36 | -5.2 | i | 0.6
CN1c2ccc(-c3cccc(F)c3)cc2[C@H]2[C@H](CCN2C(=O)C2CCOCC2)[C@@H]1CO | -1 | 5 | 2.1 | i | -0.5
Cc1ccc(S(=O)(=O)N(C)C[C@@H]2Oc3ccc(NC(=O)Nc4c(C)noc4C)cc3CC(=O)N([C@@H](C)CO)C[C@H]2C)cc1 | 0 | 6 | -0.8 | i | -0.5
C[C@H]1CN([C@@H](C)CO)C(=O)c2cc(NS(C)(=O)=O)ccc2O[C@@H]1CN(C)CC1CC1 | 3 | -1 | -3.3 | i | -1.7
C[C@@H]1CN([C@H](C)CO)C(=O)c2cc(C#CCc3ccccc3)cnc2O[C@@H]1CN(C)Cc1cccnc1 | -1 | 2 | -0.7 | i | 0.2
CC(=O)OC[C@@H]1CN(Cc2ccccc2)C[C@H](n2cnc3c(N4CCCC4)ncnc32)O1 | 4 | 5 | 2.5 | i | 3.4
COc1ccc(NC(=O)Nc2ccc3c(c2)CC(=O)N([C@@H](C)CO)C[C@H](C)[C@H](CN(C)S(=O)(=O)c2cn(C)cn2)O3)cc1 | 3 | -3 | 0.3 | i | -3.8
COC(=O)CCCn1cc(CN2CC(N3CCN(CCN(C)C)CC3)CS2(=O)=O)nn1 (centres undefined) | 15 | 14 | 6.3 | i | -2.2
Cc1cc(NC(=O)CS(=O)(=O)c2cn(Cc3cccc(Br)c3)c3ccccc23)no1 | -21* | -9.5* | 1.9* | i | -8.9
C[C@@H]1CN([C@@H](C)CO)C(=O)c2cc(C#Cc3cccc(F)c3)cnc2O[C@@H]1CN(C)CC1CCCC1 | 1 | 2 | -5.1 | i | 9.8
C[C@@H]1CCCCO[C@@H](CN(C)S(=O)(=O)c2cn(C)cn2)[C@@H](C)CN([C@@H](C)CO)C(=O)c2cc(NC(=O)C3CCCCC3)ccc2O1 | 1 | 5 | -0.8 | i | -5.5
